GIRK2 act – opens human GIRK2 potassium channels; 63,000 tested, 0.05% active; P48051; calls only for hits at 25 µM; HEK293-GIRK2 thallium flux, Thallos fluorescence;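 active = among the strongest 0.2% of first-round signals and kept after retests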;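 note: first round at about 10 µM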
Target sequence (P48051 whole entry, looked up): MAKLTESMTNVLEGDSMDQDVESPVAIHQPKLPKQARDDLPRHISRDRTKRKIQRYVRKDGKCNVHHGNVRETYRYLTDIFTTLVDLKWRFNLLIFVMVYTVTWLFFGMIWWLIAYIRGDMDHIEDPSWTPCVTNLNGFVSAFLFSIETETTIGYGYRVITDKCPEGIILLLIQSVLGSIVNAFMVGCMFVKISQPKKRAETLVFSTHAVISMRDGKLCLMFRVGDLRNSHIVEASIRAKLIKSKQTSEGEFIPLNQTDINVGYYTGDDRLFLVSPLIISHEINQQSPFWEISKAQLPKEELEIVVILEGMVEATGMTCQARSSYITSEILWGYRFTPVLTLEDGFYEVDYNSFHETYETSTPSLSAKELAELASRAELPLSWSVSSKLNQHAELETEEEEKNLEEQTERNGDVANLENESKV
Calls only; i = inactive.

GIRK2 act,SMILES
i,CCOc1ccc(CC(=O)NC2(c3nc(C)no3)CCCCC2)cc1
i,O=c1n(Cc2ccc3c(c2)OCO3)nc2c(S(=O)(=O)N3CCCC3)cccn12
i,CC1=C(C(=O)OCc2ccccc2)C(c2ccccc2OCc2ccccc2)NC(=O)N1 (centres undefined)
i,COc1ccc(C(C)NC(=O)c2ccc(-n3ccc(C)n3)nc2)cc1OC (centres undefined)
i,O=C(NCC1(c2ccc(F)cc2)CC1)c1ccc(C(F)(F)F)cc1
i,Cc1cc(C(=O)Nc2cccc3nsnc23)c(C)o1
i,O=C(CN1C(=O)CCC1=O)N1CCC(CSc2ccccn2)CC1
i,C=CCn1c(=O)[nH]c2cc(C(=O)NCc3ccccc3Cl)ccc2c1=O
i,O=C(CCn1ccc(=O)[nH]c1=O)N1CCC(c2nnc(C3CC3)o2)CC1
i,COc1ccc(NC(=O)Cn2nc3c(N4CC(C)CC(C)C4)nccn3c2=O)c(OC)c1 (centres undefined)
i,CCCOc1ccc(S(=O)(=O)N(CCOC)Cc2ccoc2)cc1
i,Cc1cc(NCc2ccccn2)n2nc(C(F)(F)F)c(-c3ccccc3Cl)c2n1
i,O=C(Cc1ccc(F)cc1)N(CCn1cccn1)c1nc2ccccc2s1
i,O=C(CN1CCN(Cc2nc(-c3cccs3)cs2)CC1)N1CCOCC1
i,O=C(NCCC(O)c1ccccc1)c1ccc(-c2ccccc2)cc1 (centres undefined)
i,O=C(NCCCN1CCCC1=O)c1nnn(-c2ccc(Cl)cc2)n1
i,COc1ccc(/C=C/C(=O)N2CCN(c3ccc(-n4ccnc4)nn3)CC2)cc1
i,O=C(NCC1(O)CCOc2ccccc21)C(=O)Nc1ccc(F)c(Cl)c1 (centres undefined)
i,COc1ccccc1NC(=O)CN1C(=O)CC(c2cccs2)CC1=O
i,Cc1ccc2c(=O)cc(-c3ccc(F)cc3)oc2c1
i,CCOC(=O)c1ccc(NC(=O)c2cc(S(=O)(=O)N3CCCCCC3)ccc2O)cc1
i,Cc1cccc(NC(=O)Cn2cccc(S(=O)(=O)N3CCC(C)CC3)c2=O)c1
i,COc1cccc(S(=O)(=O)NCc2ccc(C(=O)N3CCN(c4ccccc4OC)CC3)cc2)c1
i,CCOc1ccc(-c2cc(C(=O)N3CCC(NC(=O)c4ccc(C)c(C)c4)CC3)[nH]n2)cc1
i,O=C(Nn1cnc2c(cnn2-c2ccccc2)c1=O)c1cc(Cl)ccc1Cl
i,COc1cc(-n2c(=O)c3ccccc3n(CC(=O)Nc3cc(C)on3)c2=O)cc(OC)c1OC
i,CN1CCN(C(CNC(=O)c2cccc3ccccc23)c2cccn2C)CC1 (centres undefined)
i,CCCn1cc(S(=O)(=O)c2ccccc2)c(=O)c2cc(F)c(N3CC(C)CC(C)C3)cc21 (centres undefined)
i,CCOC(=O)C1CCc2sc(NC(=O)c3cccc(-n4cnnn4)c3)nc21 (centres undefined)
i,O=C(c1nc2ccccc2s1)N1CC(c2nc(-c3ccncc3)no2)C1

More compounds.
GIRK2 act,SMILES
i,O=C(Nc1ccccc1)c1ccc(S(=O)(=O)N2CCCc3ccccc32)cc1
i,COc1ccc(OCc2ccc(-c3nc(C#N)c(NCc4ccc5c(c4)OCO5)o3)o2)cc1
i,CCC(C(=O)N1CCN(c2nnc(SCC(=O)NC(C)C)s2)CC1)c1ccccc1 (centres undefined)
i,Cc1c(Cl)cccc1NC(=O)Cn1nc2c(Oc3ccccc3)nccn2c1=O
i,O=C(Nc1ccc(N2CCCS2(=O)=O)cc1)c1cccc([N+](=O)[O-])c1
i,COc1ccc(CNC(=O)NCc2sc(-c3ccco3)nc2C)cc1OC
i,NS(=O)(=O)c1ccc(CCNC(=O)CC2=NS(=O)(=O)c3ccccc3N2)cc1
i,COc1cc(C)ccc1OCC(=O)Nc1cc(-n2cccn2)ncn1
i,Cc1csc(C(=O)N2CCN(CC(O)c3cccs3)CC2)c1 (centres undefined)
i,COc1ccc(C(=O)c2oc3ccc(NC(=O)C4CC4)cc3c2C)cc1
i,CCCCS(=O)(=O)N1CCN(CC(O)C2CC2)CC1 (centres undefined)
i,Cc1nccn1-c1cc(NCCNC(=O)Nc2cccc(C(F)(F)F)c2)ncn1
i,COc1cc(NS(=O)(=O)c2cn(C)nc2C)cc(OC)c1OC
i,CCc1cc2c(CN3CCN(CC)CC3)cc(=O)oc2cc1O
i,COc1cc2c(cc1Nc1nc(Nc3cccc(F)c3C(N)=O)c3cc[nH]c3n1)N(C(=O)CN1CCN(C(C)C)CC1)CC2
i,CN(C)CCOC(c1ccccc1)c1ccccc1
i,COc1cccc2cc(/C(N)=N\NC(=O)c3ccccc3C)c(=N)oc12
i,O=C(CCCn1nnc2ccccc2c1=O)Nc1ccc(OCc2ccccc2)cc1
i,O=C(NCCc1ccccc1)N1CCC(Oc2ccccn2)CC1
i,O=C(c1csc(-c2cc3ccccc3[nH]2)n1)N1CCN(CCO)CC1
i,O=C(Nc1nc(-c2ccco2)cs1)c1ccc(OCC(=O)C2CC2)cc1
i,Cc1ccccc1-c1noc(-c2sccc2S(=O)(=O)N(C)c2ccc3c(c2)OCCO3)n1
i,Cc1cc(C)c(NC(=O)Cn2nc(-c3cccs3)c3sc(N4CCOCC4)nc3c2=O)c(C)c1
i,COc1cccc2cc(C(=O)N3CC(c4nc5ccc(C)cc5[nH]4)C3)oc12
i,COc1cc(COCC2CCN(CC(=O)Nc3cccnc3)CC2)cc(OC)c1
i,COc1ccc(OC)c(NC(=O)Cn2cccc(-c3nc(-c4ccc(OC)c(OC)c4)no3)c2=O)c1
i,COc1ccc(OC)c(-n2nnc(-c3nc(-c4ccccc4Cl)no3)c2C)c1
i,O=c1cccnn1CCNS(=O)(=O)c1ccc(F)c(Cl)c1
i,CNC(=O)C(=O)NCCC1CCCCN1S(=O)(=O)c1ccc(C)cc1 (centres undefined)
i,COc1cc2c(cc1OC)CN(c1nc3c(C)ccc(C)c3s1)CC2

Quoted at random: 7 entries already listed
GIRK2 act,SMILES
i,CCC(C(=O)N1CCN(c2nnc(SCC(=O)NC(C)C)s2)CC1)c1ccccc1 (centres undefined)
i,NS(=O)(=O)c1ccc(CCNC(=O)CC2=NS(=O)(=O)c3ccccc3N2)cc1
i,Cc1cc(C)c(NC(=O)Cn2nc(-c3cccs3)c3sc(N4CCOCC4)nc3c2=O)c(C)c1
i,O=C(NCC1(c2ccc(F)cc2)CC1)c1ccc(C(F)(F)F)cc1
i,O=C(NCC1(O)CCOc2ccccc21)C(=O)Nc1ccc(F)c(Cl)c1 (centres undefined)
i,O=C(c1csc(-c2cc3ccccc3[nH]2)n1)N1CCN(CCO)CC1
i,CN1CCN(C(CNC(=O)c2cccc3ccccc23)c2cccn2C)CC1 (centres undefined)

Continued:
GIRK2 act,SMILES
i,COc1cccc(-c2csc(-c3nnn(-c4cc(OC)ccc4OC)c3N)n2)c1
i,COc1cccc2cc(C(=O)NC(C)Cc3ccco3)oc12 (centres undefined)
i,CCCCn1c(=O)c2c(nc3n2CC(C)=NN3CCOCC)n(C)c1=O
i,Cc1c2ccc(N(C)c3ccnc(Nc4cccc(S(N)(=O)=O)c4)n3)cc2nn1C
i,CC(C)(C)N1CC(c2nc3ccccc3n2Cc2ccc(Cl)cc2)CC1=O (centres undefined)
i,Cc1ccccc1-c1nc(NC(=O)CSc2nnc3ccccn23)ns1
i,O=C(/C=C/c1ccco1)OC1CN(c2nc3c(Cl)cccc3s2)C1
i,CCOCCOc1cccc(N2CCn3c2nc2c3c(=O)n(C)c(=O)n2C)c1
i,COc1ccc(CNC(=O)c2ccc3c(=O)nc4c(-c5cccc(F)c5)n[nH]n4c3c2)cc1OC
i,CC(C)(C)c1ccc(NC(=O)CCSc2nnnn2-c2ccccc2)cc1
i,Cc1csc(SCC2CCN(C(=O)c3cc(C)oc3C)CC2)n1
i,COc1ccc(NC(=O)C(=O)NCCN2CCN(c3ccc(Cl)cc3)CC2)c(OC)c1
i,COc1ccc(CC(=O)c2c(C)cc(O)cc2O)cc1
i,Cn1c(=O)c2cc(C(=O)NCCCN3CCOCC3)n(Cc3ccccc3)c2n(C)c1=O
i,COc1ccccc1CNC(=O)C(=O)c1cn(CC(=O)N2CCOCC2)c2ccccc12
i,COC(=O)Cn1c(=O)c2c(nc3n(-c4ccccc4C)c(C)cn23)n(C)c1=O
i,C#CCOCC1CCN(C(=O)c2cccc(Cl)c2)CC1
i,O=C(NCC(=O)N1CCN(c2ccccc2O)CC1)c1c[nH]c2ccccc12
i,Cc1csc(NC(=O)CCc2csc(NC(=O)c3ccc(=O)[nH]c3)n2)n1
i,COc1ccc(-c2nn3c(NCCN4CCOCC4)cc(C)nc3c2C)cc1OC
i,NS(=O)(=O)c1ccc(NC(=O)CCCCCN2C(=O)c3cccc4cccc(c34)C2=O)cc1
i,Cc1ccc2[nH]c3c(=O)n(CC(=O)NCc4ccc(Br)cc4)cnc3c2c1
i,N#Cc1cnc2ccc(F)cc2c1N1CCC(C(=O)NCc2ccc3c(c2)OCO3)CC1
i,COc1ccc(C(=O)/C=C/c2ccccc2OC)c(OC(=O)N2CCOCC2)c1
i,COC(=O)c1ccc(NC(=O)C(=O)NCC(C)O)cc1 (centres undefined)
i,O=C(/C=C/c1ccco1)NCC(O)c1ccc2c(c1)CCO2 (centres undefined)
i,CC(=O)Nc1c(-c2ccccn2)nsc1C(=O)N1CCN(c2ccccc2)CC1
i,CC(C)(C)C(O)CCNC(=O)c1cccc(Cl)c1 (centres undefined)
i,O=C(Nc1cccc(Br)c1)c1cccc(S(=O)(=O)N2CCOCC2)c1
i,CN(C)C(CNC(=O)C(=O)Nc1cccnc1)c1cn(C)c2ccccc12 (centres undefined)

Three of the compounds above, with bars between the fields.
Structure | GIRK2 act
O=C(Nc1cccc(Br)c1)c1cccc(S(=O)(=O)N2CCOCC2)c1 | i
O=C(/C=C/c1ccco1)NCC(O)c1ccc2c(c1)CCO2 (centres undefined) | i
COc1ccccc1CNC(=O)C(=O)c1cn(CC(=O)N2CCOCC2)c2ccccc12 | i

Further compounds
GIRK2 act,SMILES
i,CCOC(=O)N1CCc2c(sc(NC(=O)c3ccc(C#N)cc3)c2-c2nc3ccccc3s2)C1
i,CC(C)S(=O)(=O)c1ccc(CC(=O)NCC#CCN2CCOCC2)cc1
i,Cc1cccc(N2CC(c3nc4ccccc4n3C(C)C)CC2=O)c1 (centres undefined)
i,CC(C)(C)NC(=O)N1CCC(CNC(=O)C(=O)NCC(F)(F)F)CC1
i,COc1ccc(C2c3c(oc4ccc(Br)cc4c3=O)C(=O)N2C)cc1OC (centres undefined)
i,O=C(C1COCC(=O)N1Cc1ccccc1)N1CCN(c2ncccn2)CC1 (centres undefined)
i,CCc1ccc2ncc(C#N)c(N3CCC(C(=O)Nc4ccc(C)c(C)c4)CC3)c2c1
i,COCCCn1c(C(=O)Nc2cccc(C(C)=O)c2)cc2c(=O)n(C)c(=O)n(C)c21
i,Cc1ccc(S(=O)(=O)N2CCC(c3nnc(C(F)(F)F)o3)CC2)c(C)c1
i,COc1cccc(NC(=O)NCC(C)(O)CCSC)c1OC (centres undefined)
i,COc1ccc(Cl)cc1NC(=O)CN1CCN(S(=O)(=O)N(C)C)CC1
i,CCOC(=O)Cc1csc(NC(=O)CN2CCN(c3ccccc3)C2=O)n1
i,O=C(CCCCCn1c(=O)[nH]c2ccsc2c1=O)NCc1ccc2c(c1)OCO2
i,COc1ccc(C(=O)Oc2ccc3c(=O)c(-c4ccccc4OC)c(C)oc3c2)cc1
i,Cc1cccn2c(=O)c3cc(C(=O)N4CCCCCC4)n(Cc4ccccc4)c3nc12
i,C=CCn1c(C2CC(=O)N(Cc3ccccc3)C2)nc2ccccc21 (centres undefined)
i,O=C(c1ccsc1)N1CC(c2nc(-c3cccc(Cl)c3)no2)C1
i,Cc1nnsc1C(=O)N1CCN(CC(O)c2cccs2)CC1 (centres undefined)
i,O=C(CSCc1ccccc1)NCC(O)c1ccc2c(c1)CCO2 (centres undefined)
i,CCc1noc(Cn2cnc3c4cc(C)ccc4n(CC(=O)Nc4ccc(C(C)=O)cc4)c3c2=O)n1
i,C[C@@]12C[C@@H](c3ccoc3)OC(=O)[C@H]1CC[C@@]1(C)C(C(=O)O[C@@H]3O[C@H](CO)[C@@H](O)[C@H](O)[C@H]3O)=CCC[C@@H]21
i,Cc1nc2scc(-c3cccc(NS(=O)(=O)c4ccccc4F)c3)n2c(=O)c1C
i,O=C1/C(=C/c2cccc(Br)c2)Oc2c1ccc1c2CN(Cc2ccncc2)CO1
i,Cc1cc2c(=O)n(Cc3ccco3)c(SCC(=O)Nc3ccccc3O)nc2s1
i,COc1ccc2nc(N(Cc3ccncc3)C(=O)c3ccc(S(=O)(=O)C(C)C)cc3)sc2c1
i,O=C(c1ccc(Cl)s1)N1CCC(COCc2ccccc2)CC1
i,O=C(CSc1ccc(F)cc1)N1CCN(CC(F)(F)F)CC1
i,CCOC(=O)CNC(=O)c1nnn(-c2ccc(C(F)(F)F)cc2)n1
i,COc1ccc(OCC(=O)NCc2n[nH]c(=O)c3ccccc23)cc1
i,CC1CN(C2CCCCC2)c2nc3c(c(=O)n(CC(=O)O)c(=O)n3C)n2C1 (centres undefined)

Next part.
GIRK2 act,SMILES
i,COc1ccc2c(c1)O/C(=C\C1=Cc3ccccc3OC1C)C2=O (centres undefined)
i,Cc1ccc(-c2csc(NC(=O)C3CCCCN3S(=O)(=O)c3cccs3)n2)cc1 (centres undefined)
i,Cc1ccc(CNC(=O)C2CCCN(c3nc4c(-c5ccccc5)csc4c(=O)[nH]3)C2)cc1 (centres undefined)
i,Cc1cc(C)n(-c2cc(N3CCN(C(=O)Cn4cnc5ccccc54)CC3)nc(C)n2)n1

Sorted by molar mass (ascending): some entries from above
GIRK2 act,SMILES
i,COc1ccc2c(c1)O/C(=C\C1=Cc3ccccc3OC1C)C2=O (centres undefined)
i,COc1ccc(OCC(=O)NCc2n[nH]c(=O)c3ccccc23)cc1
i,CC1CN(C2CCCCC2)c2nc3c(c(=O)n(CC(=O)O)c(=O)n3C)n2C1 (centres undefined)
i,Cc1cc(C)n(-c2cc(N3CCN(C(=O)Cn4cnc5ccccc54)CC3)nc(C)n2)n1

Compound activity (PubChem BioAssay)

The list is partial, so the mix of outcomes need not match the whole.
